# ALR H2O2 inh: human ALR oxidase inhibition via reduced H2O2. P55789. purified ALR, DTT oxidation, H2O2 HRP-luminol luminescence. inhibition, % (no concentration beside the values). actives 3.8% (n = 290,000);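 active = mean and each replicate at 75% or more; inconclusive = only one of the two met; inactive = neither met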;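 note: stock transfer was 7.5 nL into about 7.5 µL; 0% = neutral wells and 100% = wells with inactivated enzyme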
# Target sequence (P55789 whole entry, looked up): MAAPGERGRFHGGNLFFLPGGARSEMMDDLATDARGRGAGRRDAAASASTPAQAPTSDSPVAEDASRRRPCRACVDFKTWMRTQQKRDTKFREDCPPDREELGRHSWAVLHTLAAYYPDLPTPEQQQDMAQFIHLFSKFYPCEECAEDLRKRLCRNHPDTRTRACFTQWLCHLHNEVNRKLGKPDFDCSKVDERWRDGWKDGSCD
# T cruzi repl: blocks replication of Trypanosoma cruzi; T. cruzi beta-gal in NIH3T3, luminescence, 90 h; actives 1.4% (n = 300,000); AID 1885; inhibition, % (no concentration beside the values);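 active = mean inhibition across valid replicates above about 55%, limit read from the data; inconclusive = mean below that limit but half or more replicates reach it; inactive = mean below it, under half of replicates reach it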;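 note: signal also drops with host cell toxicity which is not excluded here; 0% = plate median of DMSO wells and 100% = zero luminescence signal; higher percent means less beta-gal luminescence so fewer parasites; stock transfer was 50 nL into about 50 µL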
# RanGTP-Impb inh: disruptors of Ran-importin-beta complex formation – biochemical, FRET, CFP-Ran, YFP-importin-beta, homogeneous, primary screen. cell-free CFP-Ran/YFP-importin-beta FRET ratio. inhibition, % (concentration not given with the values). actives 1.1% (n = 300,000). AID 2216;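 active = most replicates above 15%; inconclusive = exactly half above 15%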;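 note: 0% = DMSO wells and 100% = Ran loaded with GDP instead of GTP; wells of about 40 µL received 100 nL stock; the first replicate is given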
# Ecoli rRNA inh: selective bacterial rRNA inhibition in E. coli | E. coli WT GFP vs humanized-ribosome RFP mutants, fluorescence, 24 h; hits give low values; DMSO median 0, no signal -100 | GFP signal change (wild-type ribosome), % (concentration not given with the values) | actives 1.6% (n = 350,000) | AID 720706;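 active = significant combined selectivity score with lowered wild-type GFP, culture density cut under 30%, mutant RFP and density less affected; inactive = any of these conditions unmet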; note: one replicate is shown; some compounds called inactive have numbers as strong as hits
# FGF22 binding: FGF22 (human) thermal shift binding; Q9HCT0; recombinant FGF22 thermal shift, SYPRO orange fluorescence; percent of sucrose octasulfate shift, DMSO zero; calls only at 9.99 µM; actives 1.5% (n = 340,000); AID 651658;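 active = melting point raised past a set limit in the mean and every replicate; inconclusive = no clear call; three in four hits are not shown here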
# Target sequence (Q9HCT0 whole entry, looked up): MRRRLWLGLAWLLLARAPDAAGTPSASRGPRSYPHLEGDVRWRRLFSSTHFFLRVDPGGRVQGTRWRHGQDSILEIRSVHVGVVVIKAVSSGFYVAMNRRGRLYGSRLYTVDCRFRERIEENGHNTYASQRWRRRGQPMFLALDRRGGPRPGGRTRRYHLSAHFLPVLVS
# Calb FLC: C. albicans growth modulation with fluconazole. C. albicans CaCi-2 (fluconazole-resistant clinical isolate) + fluconazole, Alamar Blue growth, 48 h. growth inhibition, % (concentration not given with the values). actives 0.57% (n = 300,000);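 active = most replicates above 75%; inconclusive = exactly half above 75%; inactive = most below 75%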;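 note: all wells also contain fluconazole at 8 µg/ml as a sub-toxic cotreatment; 0% = median of DMSO wells and 100% = median of geldanamycin control wells; wells of about 8 µL received 7.5 nL stock; the first replicate is given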
# MLL AF4-AF9 inh: MLL-AF4/AF9 protein interaction inhibition | P42568 | AlphaScreen, biotin-AF4 peptide binding to FLAG-AF9 | inhibition, % at 10 µM | actives 0.47% (n = 350,000) | AID 651704;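 active = every replicate reaching a set inhibition limit, whatever the replicate mean, cut at about 25% in these data; inconclusive = mean inhibition reaches that limit but some replicates miss it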;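 note: 0% = plate neutral control median and 100% = total signal loss; the record names both 10 and 1 µM as test concentration; the first replicate is given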
# Target sequence (P42568 whole entry, looked up): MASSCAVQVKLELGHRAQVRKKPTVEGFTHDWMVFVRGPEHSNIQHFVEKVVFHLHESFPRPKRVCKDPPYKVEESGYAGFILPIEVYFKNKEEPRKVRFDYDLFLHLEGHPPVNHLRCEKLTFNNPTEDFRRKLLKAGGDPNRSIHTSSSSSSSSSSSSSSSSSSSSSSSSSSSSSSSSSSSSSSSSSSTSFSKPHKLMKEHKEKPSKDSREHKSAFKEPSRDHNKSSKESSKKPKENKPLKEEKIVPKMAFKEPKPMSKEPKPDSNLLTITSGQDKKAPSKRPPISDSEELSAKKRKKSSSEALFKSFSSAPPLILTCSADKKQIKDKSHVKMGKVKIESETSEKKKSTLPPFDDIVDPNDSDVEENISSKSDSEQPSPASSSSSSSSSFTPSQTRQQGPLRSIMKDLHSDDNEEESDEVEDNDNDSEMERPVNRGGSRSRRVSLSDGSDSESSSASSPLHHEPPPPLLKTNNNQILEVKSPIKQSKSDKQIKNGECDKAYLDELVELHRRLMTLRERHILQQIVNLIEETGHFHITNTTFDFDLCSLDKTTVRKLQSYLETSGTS
# Beta apoptosis: beta cell apoptosis inhibition; protection from apoptosis, % (test concentration not listed); actives 0.8% (n = 300,000); INS-1E cytokine-induced death, ATP luminescence, 48 h; percent of positive-control rescue, neutral wells zero; AID 435005;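 active = all replicates at 75% or more, or half of them and the mean; inconclusive = half reach 75% but not the mean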;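 note: 0% = cytokine-treated negative control wells and 100% = positive control rescue; higher means more ATP so stronger rescue from cytokine killing; wells of about 40 µL received 100 nL stock; the first replicate is given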
# Ecoli rRNA inh OD600: further read-out of Ecoli rRNA inh, marked with its call; OD600 change, %; measured here: OD600 growth;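 optical density of the mix in the first replicate; 0 = DMSO median and -100 = no signal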
# Ecoli rRNA inh RFP: also measured in Ecoli rRNA inh; calls as there; RFP signal change, %; measured here: RFP humanized mutant strains;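 first replicate; 0 = DMSO median and -100 = no signal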
# An asterisk follows results filed as active; i = inactive; ? = inconclusive; . = no result given. Only part of the results is shown; rates above refer to the full screens.
# Values run as follows: Beta apoptosis	Ecoli rRNA inh OD600	Ecoli rRNA inh	RanGTP-Impb inh	MLL AF4-AF9 inh	ALR H2O2 inh	Ecoli rRNA inh RFP	Calb FLC	T cruzi repl	FGF22 binding
- CCCN1C(=O)CC(C(=O)OC)=C1C
  -3	.	.	4.2	.	-8	.	0	11	.
- CCOC(=O)c1oc2cc(O)c(CC)cc2c(=O)c1-c1cscn1
  4	11	7	-1.4	-0.8	-9	0.2	0	-16	i
- O=C(NCCNS(=O)(=O)c1cccc(C(F)(F)F)c1)c1cc(OCC(F)(F)F)ccc1OCC(F)(F)F
  -1	.	.	-1.8	.	-3	.	?	13	.
- CCn1c(CNc2ccc(Cl)cc2)nnc1SCCN1CCCCC1
  -3	.	.	-2.4	.	98*	.	-1	11	.
- CC(C)OCCCNC(=O)c1cn(C)c2ccc(S(=O)(=O)N(C)C3CCCCC3)cc2c1=O
  7	5	4	-0.1	-3.4	-52	1.7	19	6	i
- COc1ccc(/C=C2\SC(=O)N(CC(=O)Nc3ccc(O)cc3)C2=O)cc1OC
  -8	13	9	4.5	-4.0	0	2.2	1	-1	i
- CC(C)(C)C(=O)Nc1ccccc1C(=O)Nc1ccccn1
  -8	.	.	-4.7	.	-4	.	-6	-6	.
- COc1cccc(N(CC(=O)N2CCN(C)CC2)S(=O)(=O)c2ccc(C)cc2)c1
  -1	.	.	4.1	.	-3	.	1	-11	.
- O=C(Cn1c(NCCO)nc2ccccc21)c1ccc(Cl)cc1
  2	.	.	-2.3	.	0	.	-2	4	.
- COc1cccc(C(=O)N(Cc2nc(-c3cccc(C)c3)no2)C(C)C)c1OC
  1	.	.	0.1	.	.	.	8	11	.
- COC(=O)c1ccc(Cn2nnc3ccccc32)cc1
  -5	-10	-15	1.4	-2.7	-11	-1.3	5	4	i
- COc1ccc(NC(=O)CCN2CCN(S(=O)(=O)c3ccc(C(C)C)cc3)CC2)cc1
  5	.	.	-0.1	.	-18	.	18	4	.
- COc1ccc(NC(=O)N2CCOCC2)cc1
  .	6	-6	-3.1	2.4	-15	-2.1	-7	-2	i
- Cc1nc(NC(=O)c2csc3ccccc23)sc1C
  24	.	.	2.9	.	25	.	-19	27	.
- COc1ccc(-c2nnc(SCc3csc(N)n3)n2C)cc1
  -4	.	.	1.1	.	-53	.	2	.	.
- CNS(=O)(=O)c1cc(N)ccc1C
  -2	8	5	-3.3	-1.0	-4	7.5	8	-3	i
- CN(C)S(=O)(=O)NC(=O)C1=C(N2CCCC2)COC1=O
  -8	10	11	.	-9.1	-2	-1.0	.	.	i
- Clc1ccccc1Cn1nc(-c2ccccc2)nc1-c1ccccc1
  -5	4	-5	-1.1	-6.3	8	2.2	-15	14	i
- CC(C)Oc1ccc(/C=N/NC(=O)c2nnn(-c3nonc3N)c2CN(C)C2CCCCC2)cc1
  7	13	7	2.9	-5.0	-1	-0.1	.	11	i
- O=C(COc1ncnc2ccccc12)NC1CCCC1
  -4	11	9	.	-0.5	2	-1.5	.	.	i
- O=C(NCCC1=CCCCC1)C(=O)NCc1ccccc1Cl
  3	.	.	8.7	.	-3	.	-12	9	.
- O=C(NCCc1ccc(Cl)cc1)C1CCCN1C(=O)Nc1ccc(F)cc1 (stereo not given)
  .	-70	-36	5.7	1.6	3	-10	-4	-9	i
- COc1ccc(NC(=O)C2CC(=O)N(C(C)C)C2)cc1 (stereo not given)
  -10	.	.	-4.6	.	30	.	-5	-5	.
- CCOc1ccccc1N1CCN(S(=O)(=O)c2ccc(Cl)s2)CC1
  4	.	.	8.6	.	3	.	3	12	.
- CC(C)(C)C(=O)NC1=NN(c2c(Cl)cc(Cl)cc2Cl)C(=O)C1
  -4	5	9	2.1	2.2	7	-3.8	15	-4	i
- COc1cc(/C=N/Nc2nncc3ccccc23)cc(OC)c1OC
  6	-3	-7	4.1	-0.1	6	-3.1	18	-11	i
- COc1ccc(Cc2nc3ccc(C(=O)N(C)CC4COCCO4)cc3o2)cc1 (stereo not given)
  -15	1	5	-3.7	-2.4	10	-1.1	2	-2	i
- O=C(COc1ccc2ccccc2c1)NCC(=O)N/N=C/c1ccco1
  -5	3	-1	0.2	-1.2	1	-7.6	-2	-9	i
- CCCCOCC1CN(c2ccccc2)C(=O)CS1 (stereo not given)
  -7	.	.	-1.7	.	.	.	-4	-8	.
- Clc1cccc(N/N=C(\Cc2nc3ccccc3[nH]2)c2ccccc2)c1
  16	.	.	-0.5	.	.	.	?	15	.

# Brought forward from above: three entries, then new ones.
# Values run as follows: Beta apoptosis	Ecoli rRNA inh OD600	Ecoli rRNA inh	RanGTP-Impb inh	MLL AF4-AF9 inh	ALR H2O2 inh	Ecoli rRNA inh RFP	Calb FLC	T cruzi repl	FGF22 binding
- O=C(COc1ccc2ccccc2c1)NCC(=O)N/N=C/c1ccco1
  -5	3	-1	0.2	-1.2	1	-7.6	-2	-9	i
- CCCCOCC1CN(c2ccccc2)C(=O)CS1 (stereo not given)
  -7	.	.	-1.7	.	.	.	-4	-8	.
- Clc1cccc(N/N=C(\Cc2nc3ccccc3[nH]2)c2ccccc2)c1
  16	.	.	-0.5	.	.	.	?	15	.
- COc1ccc(CCNC(=O)CN2C(=O)C3(OCCCO3)c3ccccc32)cc1OC
  0	.	.	0.2	.	-14	.	-3	-6	.
- COc1ccc(NC(=O)C2CCCO2)c(OC)c1 (stereo not given)
  -1	6	1	0.4	-2.4	-6	-3.0	8	-4	i
- CCCCCCCNC(=O)C1CC(=O)N(C)C(=Nc2ccc(OC)cc2)S1 (stereo not given)
  2	.	.	2.9	.	0	.	-8	27	.
- C#CC[N+](CC)(CC)CC#Cc1ccccc1
  -2	9	16	-0.6	-5.7	-9	-1.6	-17	-3	i
- CCCCN(C)CCNC(=O)c1ccc2c(c1)NC(=O)C(N1CCCCC1)S2 (stereo not given)
  7	.	.	-1.7	.	0	.	0	46	.
- COc1ccc(CNC(=O)C2CCN(C(=O)c3csc(Nc4ccc(C)cc4)n3)CC2)cc1
  .	-20	-16	0.8	1.0	14	2.9	1	12	i
- O=S(=O)(NCCSc1ccccn1)c1ccc(Cl)cc1
  -8	.	.	4.5	.	-2	.	5	15	.
- Cc1cc(N2CCN(C(c3ccccc3)c3ccc(Cl)cc3)CC2)n2ncnc2n1 (stereo not given)
  6	-49	-14	4.2	-1.0	0	17	-2	12	i
- COc1cc2c(cc1OC)CN(Cc1cc(OC)c(O)c(OC)c1)CC2
  -1	8	15	-0.8	-0.4	1	2.1	52	1	.
- O=C(CSc1nnc(-c2ccc(Br)cc2)o1)N1CCN(C(=O)c2ccco2)CC1
  5	-4	-1	-1.6	2.7	2	0.9	-15	-10	i
- COC(=O)c1cc2c(N)c(C(=O)c3ccccc3)sc2nc1C(OC)OC
  2	-15	-19	-1.3	-5.7	.	-4.9	-7	11	i
- O=C(Nc1nc(-c2ccc(F)cc2)cs1)c1cccnc1
  3	1	7	4.0	-4.1	-1	-6.3	-11	4	i
- Cc1ccc(CNC(=O)c2cc3c(C)nc4ccccc4c3o2)cc1
  41	-5	1	-5.9	-4.2	-3	0.0	-6	20	i
- CCOC(=O)CSc1nc2ccccc2c(=O)n1-c1ccc(C)cn1
  .	4	2	-1.4	-4.4	-2	-1.6	3	-10	i
- CCOC(=O)c1ccc(NC(=O)c2ccc(CO)c(C(=O)NC3CCN(C(=O)OCC)CC3)c2)cc1
  7	.	.	6.1	.	-10	.	104*	-3	.
- CCCN1CCN(C(=O)c2cc(COc3ccc4ncccc4c3)on2)CC1
  40	0	0	8.0	-34	.	-2.4	-6	-3	i
- COc1ccc(-n2c(=S)[nH]c3cc(C(=O)Nc4ccc(F)cc4)ccc3c2=O)c(OC)c1
  13	-28	-26	1.1	0.0	-1	-6.6	-12	-4	i
- CC(C)Cn1c(N)c(C(=O)COC(=O)CCc2nc3ccccc3c(=O)[nH]2)c(=O)n(C)c1=O
  2	6	-1	.	0.8	-1	3.1	.	.	i
- Cc1nc2nc(SCC(=O)N3CCOCC3)nn2c(C)c1Cc1ccccc1
  7	.	.	-4.5	.	1	.	-20	24	.
- Cc1cc(NC(=O)c2ccc(S(=O)(=O)N(C)C)cc2)no1
  -5	.	.	-2.7	.	-9	.	1	9	.
- CCCC1(CCC)NC(=O)N(CC(=O)Nc2ccc(Cl)c(S(=O)(=O)N3CCOCC3)c2)C1=O
  2	-7	-2	.	3.9	-3	1.2	.	.	i
- NNC(=O)COc1ccccc1[N+](=O)[O-]
  -2	6	6	0.0	-1.9	10	-1.4	14	-5	i
- COC(=O)Cc1cnc(NC(=O)CSc2nc(C(C)C)cc(=O)[nH]2)s1
  .	4	1	2.0	-2.9	65	-2.7	2	-7	i
- O=C(CSc1nc2ccccc2c(=O)n1CC1CCCO1)N1CCN(c2ccccc2)CC1 (stereo not given)
  -1	.	.	1.6	.	20	.	-2	21	.
- Cc1nc2cc(C(=O)O)ccc2n1-c1ccccc1
  .	2	3	2.2	3.2	-20	1.9	1	-5	i
- CC(OC(=O)c1cccc(S(=O)(=O)Nc2ccccc2F)c1)C(=O)NCc1ccc2c(c1)OCO2 (stereo not given)
  6	.	.	-3.2	.	-3	.	11	13	.
- O=C1CCC(O)CCN1CCSc1ccccc1 (stereo not given)
  -5	-2	1	4.8	-2.7	0	-1.4	-7	2	i
- CCN1C(=NCc2ccc(OC)cc2)N[C@@H](c2ccccc2)C(C(=O)OC)=C1C
  -9	-4	4	0.8	-3.2	0	-6.2	27	-2	i
- CCc1c(C)nc(SCC(N)=O)c(C#N)c1C
  0	-1	20	-12	.	-13	0.6	30	-9	.
- CS(=O)(=O)N(CC(=O)Nc1ccc(S(=O)(=O)N2CCCC2)cc1)c1ccccc1F
  0	.	.	-0.3	.	-2	.	5	-6	.
- CO/N=C/CC(=O)c1ccc(-c2ccccc2)cc1
  -4	1	4	0.6	0.1	-14	-2.8	15	-7	i
- O=C(CSc1nnc2ccccn12)c1ccc(OC(F)F)cc1OC(F)F
  -2	.	.	-0.7	.	.	.	34	2	.
- CCCCN1CC(=O)N2[C@H](c3ccc(OC)cc3)[C@@H]3C(=O)N(CC)C(=O)[C@@H]3[C@]2(Cc2ccccc2)C1=O
  4	-3	4	-2.0	1.6	-3	-3.7	-1	-5	i
- CC1CCCN(CCC(=O)Nc2ccccc2)C1 (stereo not given)
  -6	0	15	-1.2	-0.8	1	-0.7	-22	-11	i
- Cc1[nH]c2ccccc2c1CCCO
  -4	15	11	18*	6.7	99*	2.9	-9	-16	i
- Cc1ccc(CCNC(=O)C2CCCN(C(=O)c3cc4sccc4n3C)C2)cc1 (stereo not given)
  -8	.	.	0.1	.	.	.	6	15	.

# Screens deposited in PubChem BioAssay by Broad Institute.
